KCNQ2 enhance = potentiators of rat KCNQ2 potassium channel | Potassium voltage-gated channel subfamily KQT member 2 (Rattus norvegicus), O88943 | CHO-K1 KCNQ2, FluxOR thallium flux fluorescence; hits give high values | B-score at 10 µM | actives 0.54% (n = 310,000) | AID 2239, 2010;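 active means fluorescence ratio B-score at least 3 SD of library B-scores, with initial fluorescence B-score within 3 SD, cut at about 5.3 in these data; same plate scores as AID 2156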;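 further: B-score of peak minus minimum over baseline fluorescence ratio after K+ and Tl+ stimulus; positive B-score means potentiation of KCNQ2 with more thallium influx and brighter signal; only the inactives scoring about 0 or higher are listed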
Target sequence (O88943 whole entry, looked up): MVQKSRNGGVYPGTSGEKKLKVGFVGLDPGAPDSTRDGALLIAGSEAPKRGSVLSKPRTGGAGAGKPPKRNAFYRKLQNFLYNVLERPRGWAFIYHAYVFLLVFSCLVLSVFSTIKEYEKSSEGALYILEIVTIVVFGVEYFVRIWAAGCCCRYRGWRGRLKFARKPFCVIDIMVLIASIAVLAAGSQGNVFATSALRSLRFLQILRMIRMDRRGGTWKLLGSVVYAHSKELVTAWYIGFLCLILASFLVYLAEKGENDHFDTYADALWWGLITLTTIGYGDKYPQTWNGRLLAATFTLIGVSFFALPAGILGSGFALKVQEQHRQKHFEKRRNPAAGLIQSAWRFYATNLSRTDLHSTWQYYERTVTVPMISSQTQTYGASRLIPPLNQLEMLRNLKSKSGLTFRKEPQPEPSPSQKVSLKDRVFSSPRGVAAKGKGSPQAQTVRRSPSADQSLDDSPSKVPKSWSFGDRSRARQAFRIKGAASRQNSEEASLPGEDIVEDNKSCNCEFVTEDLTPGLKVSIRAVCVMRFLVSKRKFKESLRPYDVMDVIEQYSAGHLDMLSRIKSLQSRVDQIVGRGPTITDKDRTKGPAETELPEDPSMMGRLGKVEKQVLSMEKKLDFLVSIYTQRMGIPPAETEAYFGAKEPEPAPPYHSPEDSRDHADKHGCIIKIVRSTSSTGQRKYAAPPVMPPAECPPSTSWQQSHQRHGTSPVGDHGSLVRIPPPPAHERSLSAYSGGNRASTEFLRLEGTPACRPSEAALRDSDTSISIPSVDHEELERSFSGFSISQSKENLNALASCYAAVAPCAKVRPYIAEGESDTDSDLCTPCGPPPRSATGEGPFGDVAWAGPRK
KCNQ2 enhance baseline = second read-out of KCNQ2 enhance, no call of its own (marks repeat the call); B-score; compound at 10 µM; measured here: initial fluorescence intensity artifact check;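 brightness before thallium and not channel activity; 0 = typical well and far values either way flag optical interference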
The depositor's hits bear a star; . = no result given; & = joins results of further samples.

Order of values – KCNQ2 enhance, KCNQ2 enhance baseline
Cc1ccc[n+](C2C(c3ccc([N+](=O)[O-])cc3)C(C#N)=C([S-])NC2(O)C2CC2)c1 (stereo unspecified)
  1.9, 0.13
CSc1ccc(CNc2nnnn2C)cc1
  0.09, 0.44
CSc1ccccc1NC(=O)CN(C)C(=O)Cn1c(=O)oc2ccccc21
  1.9, -0.06
COc1ccc(-c2nnc(SCC(=O)NCC3CCCO3)n2C)cc1 (stereo unspecified)
  0.55, -2.7
CCN(CC)CCCCNc1ncc2cc(-c3cc(OC)cc(OC)c3)c(NC(=O)NC(C)(C)C)nc2n1
  0.06, 0.35
Cc1ccc(NS(=O)(=O)c2cn(C)cn2)cc1
  0.68, 0.9
O=C1CCCCCN1C(=O)c1cccc(C(=O)N2CCCCCC2=O)c1
  0.54, 0.01
CC(C)C(NS(=O)(=O)c1ccc2c(c1)OCCCO2)C(=O)O (stereo unspecified)
  0.23, -0.77
CC(C)OC(=O)c1cc(NC(=O)C2C3CCC(O3)C2C(=O)O)cc(C(=O)OC(C)C)c1 (stereo unspecified)
  3, -1.1
CCN(CC)CCNC(=O)c1ccc(NC(=O)c2cccc(S(=O)(=O)N3c4ccccc4CC3C)c2)cc1 (stereo unspecified)
  2.2, 0.13
CCCCC(=O)Nc1ccc(N2CCN(C(=O)CC)CC2)cc1
  0.68, 0.21
O=C(NCc1ccco1)/C(=C\c1ccco1)NC(=O)c1ccco1
  0.3, -2.1
O=C(Nc1ccccc1N1CCN(C(=O)c2ccc(Cl)cc2)CC1)c1ccc([N+](=O)[O-])o1
  0.14, 0.96
CC(=O)c1sc(NC(=O)c2ccc(F)cc2)nc1-c1ccccc1
  1.3, -0.99
CC(C)n1nc(C(=O)Nc2nc3ccc(S(C)(=O)=O)cc3s2)c2ccccc2c1=O
  0.19, -1
CSc1ncc(C(C)=O)c(C)n1
  0.37, 0.19
Cc1cc(C)c2nc(SC3CCOC3=O)cc(C)c2c1 (stereo unspecified)
  0.27, -1.4
COc1ccccc1C(=O)C1CCCN(C(=O)c2ccc3c(c2)OCCO3)C1 (stereo unspecified)
  0.66, -1.4
Cc1ccc(-c2cc(C(=O)Nc3c(C)n(C)n(-c4ccccc4)c3=O)[nH]n2)c(O)c1C
  0.66, 4.5
Cc1ccc(-c2nn(CCC(=O)NN3CCOCC3)c(=O)c3ccccc23)cc1
  1.5, -0.46

One compound at a time, from the list above.
`O=C(Nc1ccccc1N1CCN(C(=O)c2ccc(Cl)cc2)CC1)c1ccc([N+](=O)[O-])o1` is listed with KCNQ2 enhance: 0.14; KCNQ2 enhance baseline: 0.96
`COc1ccc(-c2nnc(SCC(=O)NCC3CCCO3)n2C)cc1` (stereo unspecified) is listed with KCNQ2 enhance: 0.55; KCNQ2 enhance baseline: -2.7
`CSc1ccc(CNc2nnnn2C)cc1` is listed with KCNQ2 enhance: 0.09; KCNQ2 enhance baseline: 0.44

Reprinted at random: 2 records from the list.
Order of values – KCNQ2 enhance, KCNQ2 enhance baseline
Cc1ccc[n+](C2C(c3ccc([N+](=O)[O-])cc3)C(C#N)=C([S-])NC2(O)C2CC2)c1 (stereo unspecified)
  1.9, 0.13
Cc1ccc(NS(=O)(=O)c2cn(C)cn2)cc1
  0.68, 0.9

Other compounds follow:
Order of values – KCNQ2 enhance, KCNQ2 enhance baseline
CCn1cc(/C=C(\NC(=O)c2ccccc2Cl)C(=O)N2CCN(C)CC2)c2ccccc21
  0.6, -4.2
O=C(O)CSc1nc2c(c(C(F)(F)F)n1)CCCC2
  0.58&1.8, -0.99&0.01
CS(=O)(=O)N(CC(=O)N1CCOCC1)c1ccc2c(c1)OCO2
  1.2, -0.37
COc1ccc(C(CC(=O)O)NC(=O)c2cc3cc(Br)ccc3oc2=O)cc1OC (stereo unspecified)
  0.02, 0.07
Cc1cccc(C)c1NS(=O)(=O)c1cc2c3c(c1)CC(=O)N3CCC2
  0.02, -0.07
COc1ccc(N2C(=O)CC(N3CCN(c4cccc(Cl)c4)CC3)C2=O)cc1 (stereo unspecified)
  0.07, 1.8
CCCCCCCCCCNC(=O)C(=O)Nc1ccccn1
  0.02, 1.1
C/C(=N/NC(=O)c1ccc(Cl)cc1Cl)c1cccnc1
  1.6, 0.63
Cc1ccc(-c2nc3ccccc3c(=O)o2)cc1
  0.39, 0.23
Cc1cc(N/N=C/c2ccccc2)nc(NCc2ccccc2)n1
  2.4, -3.3
Fc1ccc(-c2ccc(CNCc3ccccn3)o2)cc1Cl
  0.89, -1.9
CC(NC(=O)CN1CCN(Cc2cccc(F)c2)CC1)c1ccccc1 (stereo unspecified)
  0.06, 2.4
Cc1ccc(NC(=O)Cc2nc(CCl)cs2)cc1
  0.16, -0.22
CC(C)[C@H](NC(=O)c1ccccc1)C(=O)OCC(=O)N1CCc2ccccc2C1
  0.3, 0.59
CCOC(=O)/C(C#N)=C1/C=C(C)NC(c2ccccc2O)=N1
  0.87, -0.48
CC(C)(C)NC(=O)CSc1nnc(-c2ccccn2)n1-c1ccccc1
  0.51, -1.1
CCNc1nc(NCC)n2c(SCC(=O)c3ccccc3Cl)nnc2n1
  0.85, -0.2
COc1ccc(CNC(=O)C(c2ccccc2F)N(C(=O)c2csnn2)C2CC2)cc1 (stereo unspecified)
  0.97, -3
Nc1ccc(S(=O)(=O)N2CCCC2C(=O)O)cc1 (stereo unspecified)
  1.1, -0.08
O=S(=O)(/C=C/c1ccccc1)NCCc1ccccn1
  0.11, 0.93
COc1ccc(Cl)cc1NC(=S)Nc1ccc(Cl)cn1
  1.2, -1.6
Cc1ccc(C(=O)Nc2ccon2)cc1S(=O)(=O)N1CCCC1
  0.79, 2.4
O=C(CC1C(=O)NCCN1Cc1ccc(-c2ccccc2)cc1)NCCCn1cccn1 (stereo unspecified)
  0.03, 0.54
COc1ccccc1N1CCN(CC(=O)N2N=CCC2c2ccccc2)CC1 (stereo unspecified)
  1.4, -0.01
CCOC(=O)C1CCCN(C2CC(=O)N(c3ccccc3)C2=O)C1 (stereo unspecified)
  0.63, 1.6
CNC(=O)c1[nH]cnc1C(=O)Nc1cccc(OC)c1
  1.6, -2.2
CSc1nc(Cl)cc(N(CCO)CCO)n1
  0.13, 0.79
O=C(Cn1cnc(S(=O)(=O)N2CCCCC2)c1)NCc1ccco1
  0.35, -0.06
CCOC(=O)CSc1nc2cc(C)ccc2cc1C#N
  0.52, -0.35
CC(=O)c1cccc(NC(=O)COC(=O)C2=COCCO2)c1
  1.1, 0.94
Cc1ccc(N2CC(C(=O)OCc3nc(N)nc(Nc4ccccc4C)n3)CC2=O)cc1 (stereo unspecified)
  0.86, -0.23
O=C(CSc1ncnc2[nH]ncc12)Nc1nc(-c2ccc(F)c(F)c2)cs1
  0.27, 1.2
C/C(Cc1ccccc1)=N/NC(=O)CNC(=O)C(c1ccccc1)c1ccccc1
  0.12, -0.51
COc1ccc(CCC(C)N2CCC(CO)(Cc3ccccc3)CC2)cc1 (stereo unspecified)
  1.2, -0.15
O=C(O)c1ccccc1NC(=O)C(c1ccccc1)c1ccccc1
  1.4, -0.67
Cc1ccc(-c2ccc(SCC(=O)Nc3cc(C)on3)nn2)cc1
  3.4, -0.74
NC(=O)C[n+]1cccc(C(N)=O)c1
  0.14, -0.53
Cc1ccc(S(=O)(=O)N2CCCCC2)cc1NC(=O)CSc1nccn1C
  0.67, -0.45
CCSc1nnc(NS(=O)(=O)c2ccc(OC)cc2)s1
  1.4, -0.86
COc1ccc(CN2CCN(c3ccccn3)CC2)c(OC)c1C
  1.4, .
COc1ccc(N(CC(=O)Nc2cc(OC)ccc2OC)S(=O)(=O)c2c(C)noc2C)cc1
  1.5, -0.14
S=C(NCCc1ccccc1)Nc1cccc2cnccc12
  0.77, -2.7
CCCC(=O)C1=C(N(C)c2ccccc2)CC(C)(C)CC1=O
  0.38, 2.2
CCN(C(=O)CSc1nnc2nc(C)cc(C)n12)c1ccccc1
  0.46, -1.7
CC(C)(C)c1ccc(OCc2ccc(C(=O)N/N=C/c3ccc(O)c(O)c3)cc2)cc1
  1, -1.2
c1ccc(N2CCN(c3ccc4nncn4n3)CC2)nc1
  0.01, 0.06
Cc1ccc(/C=N/NC(=O)CSc2nc3ccccc3c(=O)n2-c2ccccc2)s1
  1.6, -0.48
Cc1cccc(NC(=S)NCCCN2CCOCC2)c1
  0.07, 0.23
S=c1[nH]nc(COc2ccccc2)n1Cc1ccccc1
  0.01, 1.9
O=C(CSc1n[nH]c(-c2ccc(S(=O)(=O)N3CCCCC3)cc2)n1)Nc1nccs1
  1, -1.2
COc1ccc(OC)c2nc(-c3ccncc3)ccc12
  1.8, 3.9
O=C(NCCS(=O)(=O)N1CCC2(CC1)OCCO2)c1ccc(F)cc1
  0.46, 0.22
Cc1noc(C)c1COc1cccc(C(=O)OCC(=O)NC(=O)c2ccc(OC(F)F)cc2)c1
  0.43, 2.2
CCCCOc1ccc(C(=O)NNC(=S)NC(=O)CC)cc1
  1.8, 1.3
CCn1c(=O)c(CCC(=O)NCCN2CCOCC2)c(C)c2c(C)nn(-c3ccccc3)c21
  0.09, 0.59
CCOC(=O)C(C)Sc1nc(-c2ccccn2)ncc1OC (stereo unspecified)
  0.72, 1.6
Cc1nnc(N/N=C/c2ccccc2C(F)(F)F)n1N
  0.35, 0.53
COc1ccc(C(=O)c2ccc(Cl)cc2)c2ccccc12
  0.12, -0.58
CC(Sc1ccccn1)C(=O)Nc1ccc(S(N)(=O)=O)cc1 (stereo unspecified)
  0.79, -0.48
O=C1C(=O)N(CCN2CCOCC2)C(c2ccccn2)/C1=C(/O)c1ccccc1 (stereo unspecified)
  0.03, 0.4

Further records:
Order of values – KCNQ2 enhance, KCNQ2 enhance baseline
CCOC(=O)Cn1nnnc1CN(Cc1ccc(OC)cc1)Cc1cc2cc(CC)ccc2[nH]c1=O
  0.05, -1.8
CC(=O)Oc1c(C(=O)c2nnc(C)o2)c(=O)n(C)c2ccccc12
  0.79, 0.13
COc1ccc(CCOC(=O)CNC(=O)c2ccc(Cl)cc2Cl)cc1
  0.91, 1.1
NS(=O)(=O)c1ccc(NC(=O)CSC2=NC(=O)C(c3ccccc3)C(=O)N2)cc1 (stereo unspecified)
  2.3, -0.4
CC1Cc2nc(SCC(=O)N3CCOCC3)n(-c3ccccc3)c(=O)c2S1 (stereo unspecified)
  0.84, 0.03
CCC(C)NC(=O)CN1C(=O)COc2ccc(S(=O)(=O)N3CCOCC3)cc21 (stereo unspecified)
  0.15, 0.74
COc1cc(C(=O)NCc2cccnc2)ccc1OCC(=O)Nc1cccc(C(F)(F)F)c1
  0.91, 0.03
CCCNC(=S)NC1CCCC1
  1.9, 0.6
CCOc1cc(C(=O)Nc2ccc(C)cc2C)ccc1OCC(=O)N1CCCCC1
  2.1, 0.01
CC1CC(C)CN(C(=O)CCCn2c(=O)c3cccn3c3cccnc32)C1 (stereo unspecified)
  1.5, 0.1
Cc1cc(C(=O)OCC(=O)Nc2ccc(F)cc2)c(C)o1
  5.7*, 0.58*
COc1ccc(CCNC(=O)CCNC(=O)c2ccccc2Cl)cc1
  0.45, -0.7
Clc1ccc(C2=NOC(c3nnc(-c4ccccc4)o3)C2)cc1 (stereo unspecified)
  0.13, 0.04
C[C@@H]1O[C@@H](Oc2c(-c3cc(O)c(O)c(O)c3)oc3cc(O)cc(O)c3c2=O)[C@H](O)[C@H](O)[C@H]1O
  0.13, 0.02
O=C(CCSc1ccccc1)NCC1CCCO1 (stereo unspecified)
  0.08, 1.1
CC1CCCCN1CCCNc1ccc(C(CC(N)=O)NC(=O)c2ccccc2)cc1[N+](=O)[O-] (stereo unspecified)
  0.93, -0.94
COc1ccc2oc(C(=O)OCC(=O)N3CC(C)CC(C)C3)c(C)c2c1 (stereo unspecified)
  0.88, 0.34
COc1ccc(OC)c(N/C(C)=C/C(=O)c2ccc(Br)cc2)c1
  0.01, -0.66
COC(=O)c1ccc(N2CCOCC2)c(NC(=O)c2ccc(Br)o2)c1
  1.4, -0.06
O=C(N/N=C/c1ccccc1Cl)c1nc2ccc([N+](=O)[O-])cc2c(=O)[nH]1
  2.4, 1.3
COCCn1nnnc1C(c1ccc(OC)c(OC)c1)N1CCc2ccccc21 (stereo unspecified)
  0.35, -0.86
CCCc1ccc(-c2cc(C(=O)Nc3ccc([N+](=O)[O-])cn3)c3ccccc3n2)cc1
  0.01, 0.14
CN(Cc1ccccc1)C(=O)COc1ccc(-c2nnco2)cc1
  0.16, 0.84
O=S(=O)(c1cccc(-n2cnnn2)c1)N1CCOCC1
  0.46, -1.8
O=C(Nc1ccccc1C(=O)Nc1ccccn1)c1cccc([N+](=O)[O-])c1
  0.49, 0.25
Cc1cc(C)n(-c2nc(NCCN(C)C)c3c4c(sc3n2)COC(C)(C)C4)n1
  1.7, -1.5
O=C(CSc1nc2nc(-c3cccs3)cc(C(F)(F)F)c2c(=O)[nH]1)NCc1ccco1
  3.5, -0.32
CCc1ccc(OCC(=O)NC2CCCCC2)c(Br)c1
  23*, -0.05*
COCCCNC(=O)/C(C#N)=C/c1c(N2CCN(c3ccccc3)CC2)nc2ccccn2c1=O
  0.04, -0.68
C=CCNc1nc(C(=O)OCC(=O)NCc2ccccc2OC)cs1
  1.4, -1.1
CC(C)C[C@H](NC(=O)OC(C)(C)C)C(=O)N/N=C/c1ccc2nccnc2c1
  1.5, -1.2
CC(=O)Nc1ccc(N(C(=O)CNC(=O)c2cccs2)C(C(=O)NCC2CCCO2)c2ccccc2)cc1 (stereo unspecified)
  0.51, -0.36
CCOc1ccc(/C=C/C(=O)N(C)CC(=O)Nc2cccc(F)c2)cc1OCC
  0.09, -0.29

Not all compounds are listed; rates above refer to the full screens.
